High-throughput results: PubChem, several laboratories
Calb FLC – C. albicans growth modulation with fluconazole. C. albicans CaCi-2 (fluconazole-resistant clinical isolate) + fluconazole, Alamar Blue growth, 48 h. growth inhibition, % (concentration not given with the values). 0.57% of 300,000 active;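 active = most replicates above 75%; inconclusive = exactly half above 75%; inactive = most below 75%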;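 also: all wells also contain fluconazole at 8 µg/ml as a sub-toxic cotreatment; 0% = median of DMSO wells and 100% = median of geldanamycin control wells; wells of about 8 µL received 7.5 nL stock; the first replicate is given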
rRNA inh HTS – inhibits bacterial ribosomal RNA function over humanized ribosomes; GFP signal change (wild-type ribosome), % (test concentration not listed); 1.6% of 350,000 active; E. coli WT GFP vs humanized-ribosome RFP mutants, fluorescence, 24 h; stronger effect = lower value; DMSO median 0, no signal -100;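 active = significant combined selectivity score with lowered wild-type GFP, culture density cut under 30%, mutant RFP and density less affected; inactive = any of these conditions unmet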; also: one replicate is shown; some compounds called inactive have numbers as strong as hits
Beta apoptosis – blocks beta cell apoptosis. protection from apoptosis, % (test concentration not listed). AID 435005. 0.8% of 300,000 active. INS-1E cytokine-induced death, ATP luminescence, 48 h; percent of positive-control rescue, neutral wells zero;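 active = all replicates at 75% or more, or half of them and the mean; inconclusive = half reach 75% but not the mean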;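 also: 0% = cytokine-treated negative control wells and 100% = positive control rescue; higher means more ATP so stronger rescue from cytokine killing; wells of about 40 µL received 100 nL stock; the first replicate is given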
Bfl-1 A1 inh – inhibitors of the anti-apoptotic protein A1, read as caspase activation; caspase activation, % (no concentration beside the values); 0.066% of 330,000 active; MEF A1-2A-BIM cells, Caspase-Glo 3/7 luminescence, 3 h; percent of clofoctol response, vehicle zero; AID 2462;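 active = over half of replicate activation scores above 10%, or exactly half above 10 with the replicate mean above 10; inconclusive = replicate mean below 10 yet half the replicates above 10; inactive = over half of replicates below 10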;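 also: wells of about 30 µL received 50 nL stock; many hits fall short of the cut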
Vif TR-FRET – inhibitors of Vif binding to APOBEC3G peptide, primary screen, biochemical, TR-FRET, GST-Vif 1-94, biotin-A3G peptide, dose response retest (AID 1117319) | inhibition, %; hits with a dose series show IC50 in µM | 0.57% of 260,000 active | TR-FRET GST-Vif / biotin-A3G peptide binding; higher % means a stronger effect; test concentration not given here; strong numbers were not always called active;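 active = above the screen mean plus three standard deviations and confirmed in dose response; inconclusive = results disagree or hit not tested in dose response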;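 also: Vif residues 1-94 fused to GST binding biotinylated APOBEC3G peptide 110-148; 0% = full assay without inhibitor and 100% = GST in place of GST-Vif; retest series ran down from 100 µM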
AF4-AF9 inh – blocks AF4 peptide binding to human AF9; P42568; inhibition, % at 10 µM; 0.47% of 350,000 active; AID 651704; AlphaScreen, biotin-AF4 peptide binding to FLAG-AF9;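 active = every replicate reaching a set inhibition limit, whatever the replicate mean, cut at about 25% in these data; inconclusive = mean inhibition reaches that limit but some replicates miss it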;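 also: 0% = plate neutral control median and 100% = total signal loss; the record names both 10 and 1 µM as test concentration; the first replicate is given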
Target sequence (P42568 whole entry, looked up): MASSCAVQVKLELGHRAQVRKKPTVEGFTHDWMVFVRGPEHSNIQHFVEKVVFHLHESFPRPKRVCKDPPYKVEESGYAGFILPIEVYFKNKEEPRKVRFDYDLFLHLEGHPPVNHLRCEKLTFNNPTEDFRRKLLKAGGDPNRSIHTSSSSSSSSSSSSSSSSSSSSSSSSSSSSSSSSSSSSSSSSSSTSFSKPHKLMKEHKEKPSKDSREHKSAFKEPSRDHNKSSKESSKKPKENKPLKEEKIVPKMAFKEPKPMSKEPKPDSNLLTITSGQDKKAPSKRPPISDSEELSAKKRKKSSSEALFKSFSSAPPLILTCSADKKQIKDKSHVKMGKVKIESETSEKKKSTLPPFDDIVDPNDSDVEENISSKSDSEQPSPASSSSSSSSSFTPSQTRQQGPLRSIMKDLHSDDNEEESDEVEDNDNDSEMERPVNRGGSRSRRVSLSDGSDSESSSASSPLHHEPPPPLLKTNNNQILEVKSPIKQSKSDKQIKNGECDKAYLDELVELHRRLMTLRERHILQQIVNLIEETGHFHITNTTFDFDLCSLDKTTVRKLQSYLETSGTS
RanGTP-Impb inh – inhibitors of RanGTP-importin-beta interaction, primary screen, biochemical, FRET, CFP-Ran, YFP-importin-beta, homogeneous | cell-free CFP-Ran/YFP-importin-beta FRET ratio | inhibition, % (no concentration beside the values) | 1.1% of 300,000 active | AID 2216;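 active = most replicates above 15%; inconclusive = exactly half above 15%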;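 also: 0% = DMSO wells and 100% = Ran loaded with GDP instead of GTP; wells of about 40 µL received 100 nL stock; the first replicate is given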
T cruzi inh – T. cruzi replication inhibition. T. cruzi beta-gal in NIH3T3, luminescence, 90 h. inhibition, % (concentration not given with the values). 1.4% of 300,000 active. AID 1885;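 active = mean inhibition across valid replicates above about 55%, limit read from the data; inconclusive = mean below that limit but half or more replicates reach it; inactive = mean below it, under half of replicates reach it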;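 also: signal also drops with host cell toxicity which is not excluded here; 0% = plate median of DMSO wells and 100% = zero luminescence signal; higher percent means less beta-gal luminescence so fewer parasites; stock transfer was 50 nL into about 50 µL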
rRNA inh HTS OD600 – also measured in rRNA inh HTS; calls as there; OD600 change, %; measured here: OD600 growth;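 optical density of the mix in the first replicate; 0 = DMSO median and -100 = no signal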
rRNA inh HTS RFP – further read-out of rRNA inh HTS, marked with its call; RFP signal change, %; measured here: RFP humanized mutant strains;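 first replicate; 0 = DMSO median and -100 = no signal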
An asterisk follows results filed as active; ? = inconclusive; nt = not tested or not shown; & = joins results of further samples. Some of the compounds tested (hit frequency here may not be typical).

SMILES	Calb FLC	rRNA inh HTS	rRNA inh HTS OD600	rRNA inh HTS RFP	Beta apoptosis	Bfl-1 A1 inh	Vif TR-FRET	AF4-AF9 inh	RanGTP-Impb inh	T cruzi inh
N#Cc1cnn2ccc(-c3ccc4c(c3)CCC4)nc12	2	3	-2	-0.6	3	0.5	-3%	-4.6	0.2	2
CCCCNc1c(-c2ccc(OC)c(SC(C)CC)c2)nc2ccc(Cl)cn12 (stereo unspecified)	nt	-3	-9	-1.0	3	-1.6	nt	12	nt	nt
c1ccc(N2CC[N+]3(CCCC3)CC2)nc1	-8	10	11	-0.4	-7	-0.2	6%	-3.1	-1.9	-11
CC(C)(CO)NC(=O)C(Cc1ccccc1)N1C(=O)c2ccccc2C1=O (stereo unspecified)	5	0	8	2.0	0	0.5	-1%	0.7	-3.0	-8
CCOC(=O)c1c(C)c(C(=O)NCc2cccnc2)c(C)n1C	-2	nt	nt	nt	-5	1.6	1%	nt	-2.1	0
Cc1sc2ncnc(SCC#N)c2c1C	-9	nt	nt	nt	nt	-0.1	3%	nt	6.7	-21
COc1ccc(CCNC(=O)C2CC2)cc1OC	-7	nt	nt	nt	-5	1.1	1%	nt	0.9	-9
C=CCn1c(-c2ccccc2)c[nH]c1=S	-12	nt	nt	nt	-8	-2.3	-1%	nt	4.1	-15
O=C(Nc1ccccn1)c1cc(-c2cccc(Cl)c2)nc2ccccc12	9	0	5	6.2	3	-0.4	nt	4.2	-0.6	24
Cn1nnnc1SCC(=O)N1CCN(S(=O)(=O)c2ccc(Cl)cc2)CC1	14	5	-2	4.3	nt	0.9	3%	-2.8	-3.7	3
COc1ccc(Oc2ccc(-c3ccn[nH]3)cc2)cc1	2	3	1	2.9	-3	-0.5	29%	2.5	-1.4	15
CCCCn1c(N)c(N(CC(C)C)C(=O)c2ccc(Cl)c(S(=O)(=O)N3CCCC3)c2)c(=O)[nH]c1=O	2	6	12	3.2	2	-0.1	2%	-0.2	1.7	-1
COc1ccc(Cc2c3cc(OC)c(OC)cc3cc[n+]2C)cc1OC	9	nt	nt	nt	nt	-0.8	nt	nt	7.3	-1
Cc1ccc(S(=O)(=O)NCCC(=O)OCC(=O)N2CCCC2=O)cc1C	-1	3	13	-1.0	-1	-0.6	nt	2.3	-0.5	-20
Cc1ccc(NC(=O)CCCNC(=O)c2ccc(Cl)cc2)c(Br)c1	0	20	7	-0.5	0	0.0	-5%	1.2	2.6	7
CCN(CC)S(=O)(=O)c1ccc(N(C)CCc2ccc(OC)c(OC)c2)nc1	-9	-14	-9	0.5	-3	0.5	7%	-0.2	1.3	6
Cc1cccc(OCC(O)CN2C(C)(C)CC(O)CC2(C)C)c1C (stereo unspecified)	-4	nt	nt	nt	6	-0.9	-6%	nt	2.7	10
CC1CCC(N2CCN(c3ncccn3)CC2)C1 (stereo unspecified)	3	nt	nt	nt	-3	0.8	-1%	nt	3.8	-15
CCCCn1c(S(=O)(=O)O)nc2ccccc21	-17	nt	nt	nt	4	-1.0	5%	nt	-2.1	-7
CCc1ccc(OCC(=O)Nc2ccncc2)cc1	5	-14	-18	0.1	-2	1.4	nt	-2.5	-2.2	-8
O=C(C[n+]1ccc2ccccc2c1)c1cccc2ccccc12	10	1	2	0.8	5	0.0	-6%	3.9	-6.0	12
COC(=O)c1sccc1NC(=O)c1cccc(Cl)c1	0	-2	14	-1.6	-3	-0.1	nt	-0.7	7.3	2
COc1ccccc1N1CCN(C2CCN(S(=O)(=O)c3ccc(C)cc3)CC2)CC1	-1	-3	-10	-3.4	-1	0.7	2%	7.2	6.1	7
COC(CNc1ncnc2sc(-c3ccccc3)cc12)OC	44	-15	-31	0.1	6	-1.5	-5%	-1.9	-0.5	-8
O=C(NCC1CCCO1)c1cc(C(=O)C2CCCCC2)c[nH]1 (stereo unspecified)	-4	12	10	-0.3	-4	0.4	-9%	-1.9	1.7	-15
Cc1ccccc1Nc1nnc(SCC(=O)Nc2ccccc2[N+](=O)[O-])s1	-2	-3	5	-2.1	-4	0.4	nt	6.9	3.3	-7
COc1ccc(CC2(CO)CCN(C(C)Cc3ccc(Cl)cc3)CC2)cc1 (stereo unspecified)	20	-15	-43	52	2	0.1	nt	4.2	-2.4	34
COc1ccc(NC(=O)CSc2nnc(C3CCCCC3)n2-c2ccccc2)cc1	7	nt	nt	nt	0	0.0	-8%	nt	8.6	6
Cc1c(C)c2c(OCC(=O)NCCCO)cc3c(c2oc1=O)CCC(C)(C)O3	8	-8	-7	-1.0	1	-0.1	-12%	-4.1	-2.4	-6
C/C(=N\NC(=O)c1nnn(-c2nonc2N)c1COc1ccc(F)cc1)c1ccc(Cl)cc1	7	3	2	-0.1	-3	1.0	nt	-7.5	3.2	-3
COC(=O)c1ccccc1NC(=S)NC(C)=O	-18	14	-2	3.0	-2	0.0	nt	-1.8	2.1	-10
Fc1cccc(NCc2cn3ccccc3n2)c1	-8	nt	nt	nt	0	-0.8	8%	nt	-0.6	-14
COc1cc(/C=C(\C#N)C(=O)Nc2ccccn2)ccc1O	5	0	-19	-3.1	-7	-0.5	nt	1.3	4.5	0
Cc1ccccc1NC(=O)C1CCCN(c2ncnc3onc(-c4ccc(F)cc4)c23)C1 (stereo unspecified)	1	17	-2	-0.9	5	-1.9	-4%	-0.9	0.9	-9
C[C@H](CO)N1C[C@H](C)[C@@H](CN(C)C(=O)Nc2ccc3c(c2)OCO3)Oc2ccc(NC(=O)Cn3cnnn3)cc2C1=O	nt	5&-2	-4&-1	-4.1&-2.2	-9	0.1	nt	-10&4.8	nt	nt
Cc1cccc(/C=C2\Sc3ccc(C(=O)NCC4CCCO4)cc3N(C)C2=O)c1 (stereo unspecified)	54	-18	-42	-2.0	1	1.0	nt	9.8	2.8	0
Cc1nc(N/N=C/c2ccccn2)sc1C	nt	-51	-75	-29	110*	-9.6	30%	3.0	nt	nt
O=C(O)c1ccc(-c2nc(-c3ccccc3)c(-c3ccccc3)[nH]2)cc1	5	-18	-25	-7.4	-12	0.3	-3%	-6.4	-1.5	-7
CCN(Cc1ccncc1)C(=O)c1cc(Br)cc(Br)c1O	-32	-12	-13	-0.9	0	0.4	nt	-3.9	4.0	-16
COc1ccc(CC2(CO)CCN(Cc3cnc(-c4ccccc4C)nc3)CC2)cc1	2	-4	-10	-5.4	nt	nt	12%	nt	-1.3	9
COc1ccc(CC(=O)NC(C)(C)CC(C)=O)cc1OC	-2	nt	nt	nt	3	-0.2	-7%	nt	-1.0	-7
O=S(=O)(c1ccc(Oc2ccc(S(=O)(=O)N(CCO)CCO)cc2)cc1)N(CCO)CCO	-15	1	8	0.4	3	0.7	?	-0.4	-2.1	2
O=C(CCNC(=O)c1ccc([N+](=O)[O-])cc1)NCc1ccco1	nt	7	11	-5.0	1	0.0	-4%	-3.0	nt	nt
CCN(CC)S(=O)(=O)c1ccc(OC(C)C)nc1	2	nt	nt	nt	-2	0.1	10%	nt	0.5	-15
Cc1ccc(S(=O)(=O)Cc2ccc(C(=O)NCCCN3CCN(C)CC3)o2)cc1	?	nt	nt	nt	0	-1.7	31%	nt	0.0	10
CCCCc1ccc(NC(=S)NCCCN2CCOCC2)cc1	-20	-4	-1	-0.8	-4	0.3	1%	5.0	1.2	7
CCCC(=O)Nc1ccc(N2CCN(C(=O)CCC)CC2)cc1	-7	nt	nt	nt	-1	0.8	17%	nt	-10	-1
CN1CCSc2ccc(C(=O)Nc3cccc(F)c3)cc21	15	-23*	-6.4*	9.4*	-3	-6.4	6%	-6.6	-0.4	9
O=C(CSc1cn[nH]n1)Nc1nc2ccccc2s1	-8	-3	-4	-1.7	nt	-0.4	nt	-12	2.3	-14
CC(C(=O)Nc1ccc(S(=O)(=O)Nc2ncccn2)cc1)N1C(=O)c2ccccc2S1(=O)=O (stereo unspecified)	1	11	7	-0.1	nt	-0.2	2%	-0.4	1.4	-4
Cc1ccc(C(=O)c2nc3c(n2O)CCCC3)cc1	19	nt	nt	nt	0	-0.3	-3%	nt	3.6	-1
O=c1[nH]c(CN2CCN(c3ccccc3)CC2)nc2scc(-c3ccccc3)c12	-16	13	-7	-3.9	-11	-0.1	13%	3.9	-11	-31
CCOC(=O)c1nc(C)c(C(C)=O)s1	3	14	16	3.4	-2	0.6	-5%	-1.9	0.2	-18
COc1cc(C(=O)NC(CCSC)C(=O)OCC(=O)C(C)(C)C)cc(OC)c1OC (stereo unspecified)	4	5	11	-1.3	2	-0.5	16%	-14	4.0	-14
O=S(=O)(c1ccccc1)c1nc(-c2ccco2)oc1N1CCOCC1	-1	nt	nt	nt	-1	-0.2	6%	nt	3.9	-2
Cc1nc(N2CCN(C(=O)c3ccc(Cl)cc3)CC2)c(C#N)c2c1COC(C)(C)C2	-10	nt	nt	nt	nt	-0.3	6%	nt	2.0	4
CCOC(=O)C1=C(C)N(C)C(=O)NC1c1ccccc1OC (stereo unspecified)	-1	nt	nt	nt	3	-0.4	4%	nt	-3.7	-8
C(=C\c1ccccc1)/CSc1nnc(-c2ccncc2)n1Cc1ccco1	-10	nt	nt	nt	-8	-0.4	32%	nt	2.0	20
COC(=O)CSc1nc(NC(C)=O)nc(C)c1Br	2	nt	nt	nt	-4	0.6	3%	nt	-1.7	-18
Cc1cc(C2=NNC(=Nc3ccc(S(=O)(=O)N4CCOCC4)cc3)SC2)c(C)n1C	-4	12	10	3.8	-3	0.4	18%	-1.0	-1.3	-4
COc1cccc(C(=O)Nc2cc(C)nn2-c2ccccc2)c1OC	9	-34*	-1.9*	9.9*	5	-0.1	nt	3.7	?	3

Four entries from above, with two lines to a compound:
Fields: Calb FLC | rRNA inh HTS | rRNA inh HTS OD600 | rRNA inh HTS RFP | Beta apoptosis | Bfl-1 A1 inh | Vif TR-FRET | AF4-AF9 inh | RanGTP-Impb inh | T cruzi inh
CN1CCSc2ccc(C(=O)Nc3cccc(F)c3)cc21
→ 15 | -23* | -6.4* | 9.4* | -3 | -6.4 | 6% | -6.6 | -0.4 | 9
Cc1cc(C2=NNC(=Nc3ccc(S(=O)(=O)N4CCOCC4)cc3)SC2)c(C)n1C
→ -4 | 12 | 10 | 3.8 | -3 | 0.4 | 18% | -1.0 | -1.3 | -4
CCCCc1ccc(NC(=S)NCCCN2CCOCC2)cc1
→ -20 | -4 | -1 | -0.8 | -4 | 0.3 | 1% | 5.0 | 1.2 | 7
CCOC(=O)c1nc(C)c(C(C)=O)s1
→ 3 | 14 | 16 | 3.4 | -2 | 0.6 | -5% | -1.9 | 0.2 | -18
